# Screening results from PubChem.
# rRNA inh HTS = selective bacterial rRNA inhibition in E. coli; GFP signal change (wild-type ribosome), % (concentration not given with the values); hit rate 1.6% among 350,000; E. coli WT GFP vs humanized-ribosome RFP mutants, fluorescence, 24 h; hits give low values; DMSO median 0, no signal -100;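 active = significant combined selectivity score with lowered wild-type GFP, culture density cut under 30%, mutant RFP and density less affected; inactive = any of these conditions unmet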; note: one replicate is shown; some compounds called inactive have numbers as strong as hits
# FGF22 binding = shifts melting point of recombinant human FGF22; recombinant FGF22 thermal shift, SYPRO orange fluorescence; percent of sucrose octasulfate shift, DMSO zero; hit rate 1.5% among 340,000; calls only at 9.99 µM;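 active = melting point raised past a set limit in the mean and every replicate; three in four hits are not shown here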
# Target sequence (Q9HCT0 whole entry, looked up): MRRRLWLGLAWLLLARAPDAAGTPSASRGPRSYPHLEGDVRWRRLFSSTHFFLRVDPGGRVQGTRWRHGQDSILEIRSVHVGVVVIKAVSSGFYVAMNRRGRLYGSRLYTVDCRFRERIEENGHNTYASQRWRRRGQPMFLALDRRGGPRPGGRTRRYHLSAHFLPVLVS
# rRNA inh HTS OD600 = further read-out of rRNA inh HTS, marked with its call; OD600 change, %; measured here: OD600 growth;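 optical density of the mix in the first replicate; 0 = DMSO median and -100 = no signal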
# rRNA inh HTS RFP = recorded beside rRNA inh HTS, whose call it bears; RFP signal change, %; measured here: RFP humanized mutant strains;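 first replicate; 0 = DMSO median and -100 = no signal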
# * hit, by the source's call; i = inactive. These rows are one share of the data; rates above refer to the full screens.
# Letter code – A = rRNA inh HTS; B = rRNA inh HTS OD600; C = rRNA inh HTS RFP; D = FGF22 binding
Cc1noc(C)c1S(=O)(=O)Nc1ccc2c(c1)CC(=O)N([C@@H](C)CO)C[C@@H](C)[C@@H](CN(C)C(=O)Nc1ccccc1)O2
  A: 3 | B: -1 | C: -1.9 | D: i

Cc1noc(C)c1NC(=O)Nc1cccc2c1O[C@@H](CN(C)Cc1ccc(C(=O)Nc3ccccc3N)cc1)[C@@H](C)CN([C@@H](C)CO)C2=O
  A: 1 | B: 3 | C: -1.8 | D: i

C[C@@H]1CN([C@@H](C)CO)C(=O)c2cc(C#CC3CCCC3)cnc2O[C@@H]1CN(C)S(=O)(=O)c1cccc(F)c1
  A: 3 | B: -14 | C: 1.5 | D: i

C[C@@H]1CN([C@H](C)CO)C(=O)Cc2cc(NC(=O)NC3CCCCC3)ccc2O[C@H]1CN(C)Cc1ccccc1
  A: -3 | B: -6 | C: 0.9 | D: i

CC(C)NC(=O)Nc1ccc2c(c1)C(=O)N([C@H](C)CO)C[C@@H](C)[C@H](CN(C)S(=O)(=O)c1ccc(Cl)cc1)O2
  A: -1 | B: 2 | C: -3.6 | D: i

COc1ccccc1S(=O)(=O)N[C@@H]1C=C[C@H](CC(=O)NCc2cc(F)cc(F)c2)O[C@@H]1CO
  A: -1 | B: -7 | C: -1.6 | D: i

C[C@@H]1CN([C@@H](C)CO)C(=O)c2cc(-c3ccc(C(=O)N(C)C)cc3)cnc2O[C@@H]1CN(C)C(=O)C1CC1
  A: 0 | B: 2 | C: -2.1 | D: i

N#Cc1ccc(-c2ccc3c(c2)[C@H]2[C@H](CCN2S(=O)(=O)c2ccccc2F)[C@@H](CO)N3)cc1
  A: -15 | B: -15 | C: 6.4 | D: i

CC(C)C#Cc1cnc2c(c1)C(=O)N([C@H](C)CO)C[C@H](C)[C@H](CN(C)C(=O)C1CCC1)O2
  A: 6 | B: 7 | C: -1.6 | D: i

Cn1cnc(S(=O)(=O)N[C@H]2C=C[C@H](CC(=O)N3CCN(c4ccccc4)CC3)O[C@H]2CO)c1
  A: 1 | B: 4 | C: -2.7 | D: i

COc1ccc(S(=O)(=O)Nc2cccc3c2O[C@H](CN(C)C(=O)Nc2ccc(F)cc2)[C@@H](C)CN([C@H](C)CO)C3=O)cc1
  A: 0 | B: 6 | C: -4.3 | D: i

C[C@H](O)C#Cc1ccc2c(c1)O[C@@H](CN(C)CC1CCOCC1)[C@H](C)CN([C@@H](C)CO)S2(=O)=O
  A: 0 | B: 6 | C: -2.0 | D: i

C[C@H](CO)N1C[C@H](C)[C@@H](CN(C)S(=O)(=O)c2cccs2)Oc2ccc(NS(=O)(=O)c3ccc(F)cc3)cc2CC1=O
  A: -6 | B: -11 | C: 3.1 | D: i

C[C@@H]1CN([C@@H](C)CO)C(=O)c2cc(-c3ccc(F)cc3)cnc2O[C@@H]1CN(C)C(=O)C1CCC1
  A: -7 | B: -4 | C: -0.7 | D: i

C[C@H]1CCCCO[C@H](CN(C)S(=O)(=O)c2ccccc2)[C@@H](C)CN([C@@H](C)CO)C(=O)c2cc(NC(=O)CCC(F)(F)F)ccc2O1
  A: -2 | B: -4 | C: -1.3 | D: i

C[C@H](CO)N1C[C@H](C)[C@H](CN(C)C(=O)Nc2ccccc2)OCCCC[C@H](C)Oc2ccc(NS(=O)(=O)c3ccc(Cl)cc3)cc2C1=O
  A: 0 | B: -5 | C: 0.7 | D: i

Cc1ccc(S(=O)(=O)N(C)C[C@@H]2OCCCC[C@H](C)Oc3ccc(NS(=O)(=O)c4c(C)noc4C)cc3C(=O)N([C@@H](C)CO)C[C@H]2C)cc1
  A: 3 | B: 1 | C: -0.8 | D: i

C[C@H](CO)N1C[C@H](C)[C@H](CN(C)C(=O)Nc2ccc3c(c2)OCO3)OCCCC[C@H](C)Oc2ccc(NC(=O)c3ccccc3)cc2C1=O
  A: -6 | B: 1 | C: -2.7 | D: i

Cc1ccc(S(=O)(=O)N(C)C[C@@H]2Oc3c(NC(=O)C4CCCCC4)cccc3C(=O)N([C@H](C)CO)C[C@H]2C)cc1
  A: -1 | B: -5 | C: -1.6 | D: i

CO[C@H]1CN(C)C(=O)c2cc(NS(=O)(=O)c3ccc(Cl)cc3)ccc2OC[C@@H](C)NC[C@H]1C
  A: 3 | B: 5 | C: 2.7 | D: i

C[C@H]1CN([C@@H](C)CO)C(=O)c2cc(-c3cccc(C#N)c3)cnc2O[C@@H]1CN(C)Cc1ccc(F)cc1
  A: -1 | B: -5 | C: -1.9 | D: i

COc1ccc(C#Cc2ccc3c(c2)[C@H]2[C@H](CCN2C(=O)C2CC2)[C@H](CO)N3)cc1
  A: 1 | B: 4 | C: 11 | D: i

O=C(C[C@H]1CC[C@H](NC(=O)c2ccc(F)cc2)[C@H](CO)O1)NCc1ccncn1
  A: -1 | B: -2 | C: -2.6 | D: i

O=C(O)C[C@H]1C[C@@H]2c3cc(NC(=O)C4CCOCC4)ccc3O[C@@H]2[C@@H](CO)O1
  A: 2 | B: 9 | C: -2.1 | D: i

CC(C)CC#Cc1cnc2c(c1)C(=O)N([C@H](C)CO)C[C@@H](C)[C@H](CN(C)C(=O)c1cnccn1)O2
  A: 2 | B: 2 | C: -1.2 | D: i

C[C@H](CO)N1C[C@H](C)[C@H](CN(C)C(=O)Nc2ccc(F)cc2)OCCCC[C@H](C)Oc2ccc(NC(=O)CCCN(C)C)cc2C1=O
  A: -6 | B: -10 | C: 0.1 | D: i

C[C@@H]1CN([C@H](C)CO)C(=O)c2cc(-c3ccc(C#N)cc3)cnc2O[C@H]1CN(C)CC1CCOCC1
  A: 3 | B: 13 | C: -1.6 | D: i

CC(C)NC(=O)N1C[C@H]2[C@@H](c3ccccc31)[C@@H](CO)N2C(=O)Nc1ccc(F)cc1
  A: 2 | B: 1 | C: -0.6 | D: i

C[C@H]1CCCCO[C@H](CN(C)Cc2ccc(C(F)(F)F)cc2)[C@@H](C)CN([C@@H](C)CO)C(=O)c2cc(NC(=O)NC3CCCCC3)ccc2O1
  A: 2 | B: 1 | C: 0.6 | D: i

COc1ccc(S(=O)(=O)N(C)C[C@H]2Oc3ccc(NS(C)(=O)=O)cc3C(=O)N([C@@H](C)CO)C[C@H]2C)cc1
  A: 2 | B: 3 | C: -2.5 | D: i

# One compound at a time, as listed above:
# Entry for `COc1ccc(C#Cc2ccc3c(c2)[C@H]2[C@H](CCN2C(=O)C2CC2)[C@H](CO)N3)cc1` = rRNA inh HTS: 1; rRNA inh HTS OD600: 4; rRNA inh HTS RFP: 11; FGF22 binding: i
# Entry for `O=C(O)C[C@H]1C[C@@H]2c3cc(NC(=O)C4CCOCC4)ccc3O[C@@H]2[C@@H](CO)O1` = rRNA inh HTS: 2; rRNA inh HTS OD600: 9; rRNA inh HTS RFP: -2.1; FGF22 binding: i

# Later entries.
# Letter code – A = rRNA inh HTS; B = rRNA inh HTS OD600; C = rRNA inh HTS RFP; D = FGF22 binding
C[C@@H]1CN([C@@H](C)CO)C(=O)c2cc(NC(=O)NC3CCCCC3)ccc2O[C@@H](C)CCCCO[C@@H]1CN(C)Cc1ccc(C(=O)O)cc1
  A: -3 | B: 4 | C: -1.6 | D: i

CCCC#Cc1cnc2c(c1)C(=O)N([C@H](C)CO)C[C@H](C)[C@@H](CN(C)C(=O)NCCC)O2
  A: 3 | B: -4 | C: 0.3 | D: i

C[C@H](CO)N1C[C@H](C)[C@H](CN(C)Cc2ccc(C(=O)O)cc2)OCCCC[C@H](C)Oc2ccc(NS(=O)(=O)c3ccccc3)cc2C1=O
  A: 0 | B: 2 | C: -0.4 | D: i

O=C(C[C@@H]1C=C[C@H](NC(=O)Nc2cc(F)ccc2F)[C@@H](CO)O1)Nc1ccccc1
  A: 4 | B: -5 | C: 0.7 | D: i

CCCNC(=O)N(C)C[C@H]1Oc2cc(-c3ccc(C)cc3)ccc2S(=O)(=O)N([C@@H](C)CO)C[C@@H]1C
  A: 0 | B: -15 | C: 2.8 | D: i

CO[C@@H]1CN(C)C(=O)c2cc(NC(=O)Nc3ccccc3F)ccc2OC[C@H](C)N(CC2CC2)C[C@H]1C
  A: -3 | B: -3 | C: 6.3 | D: i

NC(=O)c1ncn([C@@H]2O[C@H](C(=O)N[C@H](Cc3c[nH]c4ccccc34)C(=O)NCC(=O)N3CCCCC3)[C@@H](O)[C@H]2O)n1
  A: 20 | B: 16 | C: 0.4 | D: i

C[C@H]1CN([C@@H](C)CO)C(=O)c2cccc(NS(C)(=O)=O)c2O[C@@H]1CN(C)Cc1ccc(C(=O)O)cc1
  A: 1 | B: -7 | C: -1.0 | D: i

Cc1noc(C)c1S(=O)(=O)Nc1ccc2c(c1)C(=O)N([C@H](C)CO)C[C@@H](C)[C@H](CN(C)Cc1ccc(C(F)(F)F)cc1)O2
  A: -3 | B: -4 | C: 6.2 | D: i

C[C@@H]1CCCCO[C@@H](CN(C)C(=O)CCC(F)(F)F)[C@H](C)CN([C@@H](C)CO)C(=O)c2cc(NC(=O)c3ccccc3)ccc2O1
  A: -6 | B: -4 | C: 3.4 | D: i

CN1C(=O)c2cc(NC(=O)Cc3cccs3)ccc2OC[C@@H]2O[C@@H](CC(=O)O)CC[C@@H]21
  A: 3 | B: 6 | C: -3.1 | D: i

CN(C)CC#Cc1ccc([C@@H]2[C@H]3CN(C(=O)Nc4ccccc4F)CCCCN3[C@H]2CO)cc1
  A: 0 | B: 8 | C: -1.6 | D: i

C[C@@H]1CN([C@H](C)CO)S(=O)(=O)c2ccc(/C=C/c3ccccc3)cc2O[C@@H]1CN(C)C(=O)NC1CCCC1
  A: -4 | B: 2 | C: 2.8 | D: i

CC(C)NC(=O)N(C)C[C@@H]1OCCCC[C@@H](C)Oc2ccc(NC(=O)Nc3ccc(C(F)(F)F)cc3)cc2C(=O)N([C@@H](C)CO)C[C@@H]1C
  A: 3 | B: 5 | C: 1.6 | D: i

COc1ccc(NC(=O)Nc2cccc3c2O[C@H](CN(C)C(=O)Nc2ccc(F)cc2)[C@@H](C)CN([C@@H](C)CO)C3=O)cc1
  A: 0 | B: -4 | C: -2.8 | D: i

N#C[C@@H]1[C@@H](c2ccc(/C=C/c3ccccc3)cc2)[C@@H](CO)N1C(=O)C1CCCCC1
  A: 2 | B: -1 | C: 0.4 | D: i

CN1C(=O)c2cc(NC(=O)C3CCCCC3)ccc2OC[C@H]2O[C@H](CC(=O)NCCc3ccncc3)CC[C@H]21
  A: 0 | B: 0 | C: -2.9 | D: i

Cc1cccc(S(=O)(=O)N2C[C@@H]3[C@H](c4ccccc42)[C@H](CO)N3C(=O)c2ccccc2)c1
  A: -12 | B: -10 | C: 3.1 | D: i

C[C@@H]1CN([C@@H](C)CO)C(=O)c2cc(NS(=O)(=O)c3cccs3)ccc2O[C@@H]1CN(C)Cc1ccncc1
  A: 2 | B: 0 | C: -2.3 | D: i

COCC#Cc1cnc2c(c1)C(=O)N([C@H](C)CO)C[C@H](C)[C@H](CN(C)C(=O)c1ccc(F)cc1)O2
  A: 6 | B: 8 | C: -3.0 | D: i

COCCNC(=O)C[C@@H]1CC[C@H]2[C@H](COc3ccc(NC(=O)C4CCCC4)cc3C(=O)N2C)O1
  A: 0 | B: 13 | C: -1.5 | D: i

CCCNC(=O)[C@@H]1N[C@@H]2c3ccc(C4=CCCC4)c(=O)n3C[C@@H]2[C@H]1CO
  A: 3 | B: 7 | C: 1.8 | D: i

CCC(=O)Nc1ccc2c(c1)OC[C@@H](C)N(Cc1ccccc1OC)C[C@@H](C)[C@@H](OC)CN(C)C2=O
  A: 2 | B: -1 | C: -2.0 | D: i

COc1ccc(NC(=O)N(C)C[C@H]2OCCCC[C@H](C)Oc3ccc(NS(=O)(=O)c4ccc(OC)cc4)cc3C(=O)N([C@@H](C)CO)C[C@@H]2C)cc1
  A: -2 | B: -7 | C: 0.3 | D: i

C[C@@H]1CN([C@@H](C)CO)S(=O)(=O)c2ccc(-c3ccccc3F)cc2O[C@@H]1CN(C)Cc1ccncc1
  A: -5 | B: -13 | C: 9.1 | D: i

COc1ccc(NC(=O)N(C)C[C@H]2Oc3ccc(NC(=O)Cn4cnnn4)cc3CC(=O)N([C@H](C)CO)C[C@H]2C)cc1
  A: 0 | B: 4 | C: 0.8 | D: i

C[C@H](CO)N1C[C@H](C)[C@H](CN(C)S(=O)(=O)c2cccc(F)c2)Oc2ncc(-c3cccc(C(F)(F)F)c3)cc2C1=O
  A: -2 | B: -7 | C: 1.4 | D: i

Cc1noc(C)c1S(=O)(=O)N(C)C[C@@H]1Oc2ccc(NS(=O)(=O)c3cn(C)cn3)cc2C(=O)N([C@@H](C)CO)C[C@@H]1C
  A: 4 | B: 8 | C: 0.0 | D: i

CN1C(=O)c2cc(NC(=O)Cc3ccccc3)ccc2OC[C@@H]2O[C@H](CC(=O)NCC3CC3)CC[C@@H]21
  A: 0 | B: -3 | C: -4.4 | D: i

C[C@H](CO)N1C[C@H](C)[C@H](CN(C)S(=O)(=O)c2ccccc2)Oc2ccc(NC(=O)CCCCCC(=O)Nc3ccccc3N)cc2CC1=O
  A: 0 | B: -1 | C: 1.2 | D: i

CC(C)NC(=O)Nc1cccc2c1O[C@@H](CN(C)Cc1ccc(Oc3ccccc3)cc1)[C@H](C)CN([C@H](C)CO)C2=O
  A: -3 | B: -2 | C: 1.9 | D: i

CCOC(=O)CN1C(=O)[C@]2(OCCC=C[C@H]2C)c2cc(OC)ccc21
  A: 43 | B: 26 | C: 2.9 | D: i

CNC[C@H]1Oc2cc(C#Cc3cccc(F)c3)ccc2S(=O)(=O)N([C@H](C)CO)C[C@@H]1C
  A: 3 | B: -9 | C: 20 | D: i

COC(=O)C1=C(C)N(Cc2ccc(F)cc2)C(=S)NC1c1cccc(Br)c1 (stereo not drawn)
  A: -10 | B: -10 | C: -3.6 | D: i
